Compound activity (PubChem)
Ecoli growth = E. coli growth inhibition, primary screen, OD600. Escherichia coli growth, 23 h; active compounds read low. OD600 absorbance (concentration not given with the values). actives 0.21% (n = 330,000). AID 1053175, 2014;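 active = OD600 absorbance below the run mean of sample wells minus 3.6 SD, in any replicate, cut at about 0.56 in these data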;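 note: stock transfer was 300 nL into about 60 µL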
Vif A3G = inhibitors of Vif binding to APOBEC3G peptide, primary screen, biochemical, TR-FRET, GST-Vif 1-94, biotin-A3G peptide, dose response retest (AID 1117319) | TR-FRET GST-Vif / biotin-A3G peptide binding; higher % means a stronger effect; test concentration not given here; strong numbers were not always called active | one-dose inhibition, %; IC50 in µM for titrated hits | actives 0.57% (n = 260,000);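 active = above the screen mean plus three standard deviations and confirmed in dose response; inconclusive = results disagree or hit not tested in dose response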;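 note: Vif residues 1-94 fused to GST binding biotinylated APOBEC3G peptide 110-148; 0% = full assay without inhibitor and 100% = GST in place of GST-Vif; retest series ran down from 100 µM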
FGF22 binding = binders of human FGF22 protein, primary screen, FGF22 synaptogenesis inhibitor project, biophysical, thermal shift, single point; Fibroblast growth factor 22 (Homo sapiens), Q9HCT0; recombinant FGF22 thermal shift, SYPRO orange fluorescence; percent of sucrose octasulfate shift, DMSO zero; calls only at 9.99 µM; actives 1.5% (n = 340,000); AID 651658, 2012;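 active = melting point raised past a set limit in the mean and every replicate; inconclusive = no clear call; three in four hits are not shown here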
Target sequence (Q9HCT0 whole entry, looked up): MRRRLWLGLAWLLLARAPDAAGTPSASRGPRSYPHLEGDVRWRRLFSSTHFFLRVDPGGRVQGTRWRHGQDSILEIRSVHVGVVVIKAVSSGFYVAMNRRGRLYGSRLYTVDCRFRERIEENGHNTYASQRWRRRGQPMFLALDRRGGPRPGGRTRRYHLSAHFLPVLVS
UCH37 inh = inhibitors of human UCH37 deubiquitinase, primary screen, biochemical, Ub-AMC cleavage, fluorescence; purified proteasome/UCH37; AID 588478, 2011; inhibition, % (no concentration beside the values); Ubiquitin carboxyl-terminal hydrolase isozyme L5 (Homo sapiens), Q9Y5K5; actives 0.33% (n = 330,000);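 active = mean of two replicates above 20%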;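 note: 0% = compound-free wells with enzyme and 100% = wells lacking proteasome; stock transfer was 100 nL into about 20 µL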
Target sequence (Q9Y5K5 whole entry, looked up): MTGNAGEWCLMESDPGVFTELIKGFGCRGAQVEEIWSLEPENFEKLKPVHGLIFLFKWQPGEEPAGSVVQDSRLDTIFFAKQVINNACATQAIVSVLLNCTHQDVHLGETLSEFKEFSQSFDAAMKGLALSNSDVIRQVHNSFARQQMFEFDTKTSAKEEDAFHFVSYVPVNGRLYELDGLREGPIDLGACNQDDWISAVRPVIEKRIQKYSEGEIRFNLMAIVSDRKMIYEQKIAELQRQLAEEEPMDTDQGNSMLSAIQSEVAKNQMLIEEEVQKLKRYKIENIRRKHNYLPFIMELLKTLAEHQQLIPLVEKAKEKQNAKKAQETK
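assay system = human UCH37 enzyme supplied as purified proteasome complex | amount = proteasome at 0.15 nM in the dispensed enzyme solution | schedule = 30 min compound-proteasome preincubation then 25 min substrate reaction, room temperature | measured by = fluorescence, ex 355 nm, em 460 nm | benchmarks = no-proteasome wells (full inhibition) and compound-free wells (no inhibition)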
HNF4A DNA FP = change in binding of human HNF4A to DNA, primary screen, biochemical, fluorescence polarization, FITC-DNA. 1 h. activity change, % at 10 µM. actives 0.3% (n = 360,000); in the data active = activity change above about 30%, passing the limit was not always enough;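 note: controls were the assay level and a saturating level of protein; the project sought stronger binding though the title names inhibitors; some compounds called inactive have numbers as strong as hits; positive values seem to mean higher polarization but the record does not say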
Target sequence (P41235 whole entry, looked up): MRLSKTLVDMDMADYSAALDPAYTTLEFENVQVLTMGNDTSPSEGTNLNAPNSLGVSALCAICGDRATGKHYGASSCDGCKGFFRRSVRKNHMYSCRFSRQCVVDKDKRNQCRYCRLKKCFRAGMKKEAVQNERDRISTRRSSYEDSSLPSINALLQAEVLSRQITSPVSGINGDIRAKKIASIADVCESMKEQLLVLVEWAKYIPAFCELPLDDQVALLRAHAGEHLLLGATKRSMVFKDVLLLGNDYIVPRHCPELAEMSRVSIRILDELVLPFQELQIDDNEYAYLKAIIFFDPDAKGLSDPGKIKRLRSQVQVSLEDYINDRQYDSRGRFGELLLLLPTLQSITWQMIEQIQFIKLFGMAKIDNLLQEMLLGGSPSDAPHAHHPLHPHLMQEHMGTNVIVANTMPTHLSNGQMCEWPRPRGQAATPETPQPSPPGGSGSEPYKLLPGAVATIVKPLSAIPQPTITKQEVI
RanGTP-Impb inh = inhibitors of RanGTP-importin-beta interaction, primary screen, biochemical, FRET, CFP-Ran, YFP-importin-beta, homogeneous | Ran GTPase (GTP-bound) - importin-beta complex | cell-free CFP-Ran/YFP-importin-beta FRET ratio | inhibition, % (test concentration not listed) | actives 1.1% (n = 300,000);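 active = most replicates above 15%; inconclusive = exactly half above 15%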;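 note: 0% = DMSO wells and 100% = Ran loaded with GDP instead of GTP; wells of about 40 µL received 100 nL stock; the first replicate is given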
AF4-AF9 inh = inhibitors of AF4 peptide binding to AF9, primary screen, biochemical, AlphaScreen, biotin-AF4 peptide, FLAG-AF9, single point; Protein AF-9 (Homo sapiens), P42568; inhibition, % at 10 µM; actives 0.47% (n = 350,000); AID 651704, 2012;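 active = every replicate reaching a set inhibition limit, whatever the replicate mean, cut at about 25% in these data; inconclusive = mean inhibition reaches that limit but some replicates miss it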;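 note: 0% = plate neutral control median and 100% = total signal loss; the record names both 10 and 1 µM as test concentration; the first replicate is given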
Active calls of the source: *; i = inactive; ? = inconclusive; nt = not tested or not shown; & = joins results of further samples.

Every second line gives: UCH37 inh	HNF4A DNA FP	Ecoli growth	RanGTP-Impb inh	Vif A3G	FGF22 binding	AF4-AF9 inh
- C/C(=C\C(=O)c1ccc(C)o1)Nc1ccc2c(c1)OCO2
→ 9.9	0.5	0.722	4.3	13.8%	nt	nt
- COCc1cc(=O)c2ccccc2o1
→ -0.9	-3.0	0.661	nt	nt	i	-2.9
- Cc1c(NC(=O)C23CC4CC(CC(C4)C2)C3)c(=O)n(-c2ccccc2)n1C
→ 6.1	-3.3	0.7	3.1	nt	i	-8.2
- COc1cccc(CNc2nn[nH]n2)c1OC
→ 4.5	0.0	0.741	1.0	2.3%	nt	nt
- CCn1c(CC(=O)Nc2ccc(C)cc2)nnc1SCC(=O)Nc1nc(C)cs1
→ 2.0	0.7	0.728	-54.2	1.1%	nt	nt
- COc1cc(CNc2ncnc3c2ncn3[C@H]2CN(CCN3CCOCC3)C[C@@H](CO)O2)cc(OC)c1OC
→ nt	-0.8	nt	nt	nt	i	1.0
- O=C(NCCO)/C(=C/c1cccc([N+](=O)[O-])c1)NC(=O)c1ccco1
→ 4.3	1.9	0.723	-0.6	5.4%	i	-0.6
- COC(=O)[C@H](CC(C)C)NS(=O)(=O)c1ccc(F)cc1Br
→ nt	1.0	nt	nt	-5.7%	i	0.6
- CCCCCn1c(N)c(-c2nc3ccccc3s2)c2c([N+](=O)[O-])nn(C)c(=O)c21
→ 5.0	-3.7	0.653	0.3	-2.8%	i	8.4
- COc1ccc(C2=Nc3ccccc3N(C(=O)c3ccc4c(c3)OCO4)C2C(=O)NCc2ccccc2)cc1 (centres undefined)
→ nt	7.9	nt	nt	nt	i	-1.1
- COc1ccc(S(=O)(=O)Nc2cccc(C(C)=O)c2)cc1Br
→ -1.1	-2.8	0.697	3.3	nt	i	1.8
- COC(=O)CCP(=O)(O)Cc1ccccc1CP(=O)(O)CCC(=O)OC
→ 1.0	0.3	0.702	0.3	13.1%	nt	nt
- O=C(Nc1ccc(-n2cnnn2)cc1)C1CCCN1C(=O)Nc1ccc(Br)cc1 (centres undefined)
→ 3.3	-6.2	0.701	-1.2	nt	i	-0.6
- CC1CCCCN1C(=O)c1cccc(NC2=C(Cl)C(=O)N(Cc3ccccc3)C2=O)c1 (centres undefined)
→ 1.0	-1.1	0.675	nt	-2.9%	nt	nt
- CCn1cc(C(=O)NCCN(C)C)c(=O)c2cc(F)c(N3CCN(C)CC3)cc21
→ -35.1	-4.2	0.0525*	-4.3	-8.1%	nt	-0.4
- c1ccc(-c2ccc3nncn3c2)cc1
→ nt	2.2	nt	nt	nt	i	-6.6
- O=C(N=Nc1c(O)[nH]c2ccccc12)c1cccc(S(=O)(=O)Nc2ccccc2Cl)c1
→ 2.0	0.7	0.727	2.2	13.7%	i	0.5
- CCCCN1C(=N)N([C@@H](C)CN2CCC[C@H]2CN2C(N)=NC[C@@H]2Cc2ccccc2)C[C@H]1Cc1ccccc1
→ 2.8	-5.8	nt	nt	nt	i	nt
- CC(C)C(=O)Nc1ccc(S(=O)(=O)Nc2nccc(/C=C/c3ccccc3)n2)cc1
→ -30.4	5.0	0.699	-2.9	2.6%	i	-1.7
- CCN(CC)CCn1c2c(c(SCC(=O)Nc3cccc(C(C)=O)c3)nc1=O)CCCC2
→ 5.9	4.9	0.706	10.9	4.8%	i	-4.4
- CSC1=N/C(=C\c2ccccc2C)C(=O)S1
→ 3.0	-3.9	0.678	5.1	6.1%	i	-0.4
- CCOC(=O)C1CCN(C(=O)c2ccc(OCC(=O)Nc3cccc(C(F)(F)F)c3)cc2)CC1
→ nt	1.0	nt	-1.6	nt	i	6.2
- COc1ccc(-c2nc3ccc(N4CCN(C)CC4)cc3c(=O)[nH]2)cc1
→ -200.7	6.1	0.651	2.7	nt	i	1.2
- O=C(NCc1cccnc1)C(=O)Nc1nc(C23CC4CC(CC(C4)C2)C3)cs1
→ 3.3	3.2	0.668	2.3	0.7%	i	7.2
- COc1ccccc1OCC(=O)OCC(=O)NC1CCCCC1
→ 2.9	-0.4	0.726	nt	-6.6%	i	-3.9
- Cc1ccc(C=C2C(=O)c3ccccc3C2=O)o1
→ 3.5	4.0	0.679	0.2	nt	nt	nt
- CC(C)c1ccc(OCC(O)CN2CCN(c3ccccc3)CC2)cc1 (centres undefined)
→ 5.1&5.0	-1.2&1.1	0.617&0.642	-2.7	-6.5%&-7.5%	i	3.4
- Clc1ccc2nc(CSc3ccccc3)cn2c1
→ 2.3	-3.2	0.703	2.5	6.1%	i	-4.0
- CCc1c(C)nc2ncnn2c1N1CCCC(C(=O)NCCc2ccc(OC)cc2)C1 (centres undefined)
→ 2.2	1.6	0.736	-0.8	?	nt	nt
- COc1ccc(S(=O)(=O)N(CC(=O)N2CCCCCC2)c2ccccc2OC)cc1
→ 0.8	3.5	0.685	-6.9	nt	i	-0.1
- NC(=S)Nc1ccc(C(F)(F)F)cc1Cl
→ 0.5	-4.0	0.648	3.5	nt	i	0.7
- COc1cc(OC)cc(-c2oc3cccnc3c2C#CCCO)c1
→ -13.4	4.3	nt	-7.1	nt	i	0.0
- CC(C)c1ccc(S(=O)(=O)c2cnc(=S)[nH]c2N)cc1
→ 0.1	1.0	0.682	-2.3	-7.5%	i	0.9
- CC(C)CN(C(=O)CSc1nc(-c2ccccc2)cn1N)c1c(N)n(Cc2ccccc2)c(=O)[nH]c1=O
→ 4.5	6.6	0.669	5.0	3.3%	i	0.0
- Cc1ccc(NC(=O)CCc2nnc3ccc(NCc4ccco4)nn23)cc1
→ 5.5	-0.2	0.696	1.8	3.6%	i	-1.9
- O=[N+]([O-])c1ccc(NCCc2ccccc2)c(Br)c1
→ nt	-0.7	nt	2.4	8.5%	i	0.3
- CSCCC(NC(=O)c1ccccc1Cl)C(=O)NNC(=O)c1ccccc1O (centres undefined)
→ -28.2	-5.2	0.642	nt	5.8%	i	8.9
- Cc1ccccc1-c1nnn(CC(=O)Nc2cccc(S(N)(=O)=O)c2)n1
→ 1.1	-4.0	0.709	3.2	-0.3%	i	1.3
- COCC(=O)Nc1cc(C(=O)Nc2ccccc2)ccc1Cl
→ -0.8	nt	0.659	0.9	0.2%	i	-0.3
- CCCCn1nnnc1C1(C)CCC(=O)N1CCc1ccccc1F (centres undefined)
→ nt	2.2	nt	nt	nt	i	-2.1
- Cc1ccc2nc(C)c3c(c2c1)COC3
→ -4.2	2.1	0.647	0.4	3.1%	nt	nt
- O=C(CCCn1nnnc1CN1CCOCC1)N1CCN(c2ccccc2F)CC1
→ 5.6	-3.9	0.678	-1.8	3.9%	i	-1.4
- COc1ccccc1-c1nnc(SCC(=O)c2c(N)n(C3CC3)c(=O)[nH]c2=O)o1
→ 1.2	0.1	0.724	nt	-1.7%	i	2.6
- Cc1cccc(C)c1Nc1nnc(SCc2cn3cccc(C)c3n2)s1
→ 4.1	-0.2	0.669	nt	14.7%	i	1.1
- CN(C)CCN(Cc1ccccc1)C(=O)C1CCN(c2ncnc3c2nc2n3CCCCC2)CC1
→ nt	-1.7	nt	7.4	nt	i	-1.8
- NS(=O)(=O)c1ccc(N2N=C(c3ccccc3)CC2c2ccccc2Cl)cc1 (centres undefined)
→ i	2.8	0.689	nt	6.3%	i	-4.7
- S=C(NCc1cccs1)Nc1cc(Cl)cc(Cl)c1
→ 3.7	-2.2	0.574	0.9	-3.0%	i	-8.5
- CN(C)c1nc(N)nc(CSc2ncc(Cl)cc2Cl)n1
→ 2.1	-1.1	0.71	0.7	74.5%	nt	nt
- Nc1nc(CSCCO)nc(Nc2ccccc2)n1
→ 5.0	-2.7	0.645	-2.3	2.2%	nt	nt
- Clc1ccccc1-c1ccc2ncnc(NCc3cccs3)c2c1
→ nt	-0.9	nt	nt	nt	i	5.2
- CC1CCCN(C(=O)C2CCC(CNc3c(N4CCCCC4)c(=O)c3=O)CC2)C1 (centres undefined)
→ 2.8	-1.9	0.697	2.8	-16.4%	i	-35.9
- Cc1ccccc1N=C/C=C1/C=C(c2ccccc2)OC(C)(C)O1
→ 9.1	2.7	0.606	-3.2	-2.8%	i	4.4
- O=C(Nc1ccc(S(=O)(=O)Nc2nccs2)cc1)c1ccccc1OC(F)F
→ 1.4	-3.3	0.689	nt	nt	i	1.2
- COc1ccccc1C(=O)Nc1c(-c2ccccc2)nc2ccccn12
→ 4.2	2.0	0.652	-4.4	nt	i	-1.9
- Cc1ccc(-c2[nH]nc(N)c2N=Nc2ccccc2C)cc1
→ 6.9	2.0	0.695	5.4	-3.0%	nt	nt
- CCN(CC)CCOC(=O)C1c2ccccc2Oc2ccccc21
→ 5.8	-2.1	0.661	3.3	-3.3%	nt	nt
- Cc1sc(NC(=O)c2ccccc2)c(C(c2ccc(Cl)cc2)N2CCN(CCO)CC2)c1C (centres undefined)
→ -11.7	-2.7	0.722	0.5	-9.7%	i	9.1
- Cc1ccc(-c2noc(C3CCN(S(C)(=O)=O)CC3)n2)o1
→ -1.0	5.8	0.723	-5.5	3.4%	nt	nt
- Cc1ccc2cc(CN(C(=O)c3cccs3)c3ccccc3)c(=O)[nH]c2c1
→ -3.8	0.9	0.718	1.7	nt	i	5.7
- CCN1CCN(c2ccc(S(=O)(=O)N3CCOCC3)cc2NC(=O)c2ccccc2OC(F)F)CC1
→ 1.2	4.6	0.658	?	8.6%	i	4.3

Next results:
Every second line gives: UCH37 inh	HNF4A DNA FP	Ecoli growth	RanGTP-Impb inh	Vif A3G	FGF22 binding	AF4-AF9 inh
- Cc1ccc(O)c(C(=O)c2cc(C#N)c(=O)n(-c3c(C)n(C)n(-c4ccccc4)c3=O)c2)c1
→ 7.5	6.3	0.663	3.6	6.7%	nt	nt
- COCCN(C(=O)CCC(=O)Nc1nccs1)C(C(=O)NCCC(C)C)c1ccc(OC)cc1 (centres undefined)
→ 1.8	-0.5	0.694	0.6	-5.8%	i	0.9
- COc1ccccc1-c1c(C)nn2c(-c3ccccc3)cc(C)nc12
→ 3.5	1.7	0.664	3.9	-0.8%	i	26.5*
- CCN(CC)C(=O)CSCC(=O)Nc1ccccc1
→ 2.2	-2.2	0.699	0.3	72.5%	nt	nt
- CC1CC(C)CN(C(=O)C(Cc2ccccc2)n2cccc2)C1 (centres undefined)
→ 4.4	2.5	0.699	-4.1	nt	i	8.2
- O=c1c2ccccc2nc2c3ccccc3c(NCc3ccccn3)nn12
→ -165.2	7.3	0.759	nt	-0.6%	i	-5.5
- CC1CCN(C(=O)c2[nH]cnc2C(=O)N[C@@H](CCCCNC(=O)OC(C)(C)C)C(=O)OC(C)(C)C)CC1
→ 4.6	-4.1	nt	-5.2	nt	i	2.8
- CCc1ccc(-n2ccc(=O)c(C(=O)O)n2)cc1
→ 1.3	-0.5	0.72	2.5	1.3%	i	-5.1
- O=c1cc(-c2ccccc2)nc2cc(-c3ccco3)[nH]n12
→ -30.6	-3.1	0.667	4.4	?	i	1.7
- Cc1ccccc1NC(=O)CC(O)(C(F)(F)F)C(F)(F)F
→ -0.7	-2.2	0.725	-1.8	-2.6%	nt	nt
- CCOc1ccc(S(=O)(=O)N2CCN(C(=O)c3ccccc3Cc3ccccc3)CC2)cc1
→ nt	-2.3	nt	0.2	nt	i	-0.9
- O=C(c1cc(COc2c(F)cccc2F)on1)N1CCCCCC1
→ 1.9	0.6	0.691	-5.3	-0.3%	i	-1.2
- CCOC(=O)c1sc(NC(=O)c2ccncc2)nc1C
→ 7.4	0.2	0.661	9.1	nt	nt	nt
- CCCCc1c(O)nc2sc3cc(OC)ccc3n2c1=O
→ 1.7	-0.5	0.727	-4.7	-1.9%	nt	nt

An excerpt (hit frequency here may not be typical).
